PrP 5UTR inh = suppresses PrP 5' UTR mRNA reporter expression; inhibition, % (test concentration not listed); cell-based PrP 5' UTR mRNA reporter, plate reader; hit rate 0.35% among 340,000;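 active means every replicate at 50% or more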;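 further: 0 = median of the neutral control wells; tested in H4 reporter cells; numbers are from one replicate; inactives centre near -14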
Sa ugtP lethal = growth inhibition of S. aureus ugtP deletion strain. S. aureus RN4220 ugtP deletion, OD600 growth, 16 h; some inactives read as strong as hits. growth inhibition, % (no concentration beside the values). hit rate 0.54% among 330,000. AID 1259309;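 active means z-score under -3 and OD600 up to 0.15 on both plates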;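 further: plate controls were untreated wells for no effect and antibiotic for full effect; wells of about 80 µL received 100 nL stock; the first replicate is given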
Mtb hypoxia inh = Mtb hypoxia fluorescent reporter inhibition. M. tuberculosis hypoxia-regulated fluorescent reporter, fluorescence. fluorescence inhibition, % (no concentration beside the values). hit rate 0.1% among 300,000. AID 1159583;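 active means 35 to 45% if threefold the growth effect, above 45% if 1.5-fold the growth effect; inactive means the rest, general growth blockers included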;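 further: wells of about 50 µL received 100 nL stock; 0% = vehicle wells and 100% = reference inhibitor wells; whole bacteria with a GFP reporter of the hypoxia response; strong numbers were not always called active; many hits fall short of the cut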
BJeLR lethal = BJeLR cell viability loss; BJeLR (HRASV12) viability, CellTiter-Glo ATP luminescence, 48 h; reference of the scale not given here; inhibition, % (test concentration not listed); hit rate 0.17% among 300,000; AID 1554;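 active means replicate mean above 50%; inconclusive means above 50% but judged a plate artefact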;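 further: 50 nL library stock added to about 25 µL; numbers are from one replicate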
Sa RN4220 lethal = kills Staphylococcus aureus RN4220 | S. aureus RN4220 growth, OD600, 16 h | hit rate 0.33% among 330,000 | inhibition, % (concentration not given with the values);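 active means z-score of -3 or lower and OD600 up to 0.18 on both plates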;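 further: plate controls were untreated cells for no effect and reference antibiotic for full effect; stock transfer was 100 nL into about 80 µL; one replicate is shown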
Bead autofluor = counter-screen for toxin protease inhibitors: compound fluorescence. compound autofluorescence counterscreen, microsphere flow cytometry; hits give high values. hit rate 3.1% among 360,000. fluorescence intensity (test concentration not listed);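 active means at least 3 SD above the mean of all compounds, about 16000 in these data; inconclusive means too few beads counted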;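 further: 100 nL of 1 mM stock went into each well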
Mtb hypoxia inh growth = recorded beside Mtb hypoxia inh, whose call it bears; growth inhibition, %; measured here: M. tuberculosis growth (absorbance);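 0% = vehicle and 100% = reference antibiotic; read after six days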
* hit, by the source's call; ? = inconclusive; nt = not tested or not shown.

SMILES	PrP 5UTR inh	Sa ugtP lethal	Mtb hypoxia inh	Mtb hypoxia inh growth	BJeLR lethal	Sa RN4220 lethal	Bead autofluor
O=C(Nc1ccc(N2CCOCC2)cc1)c1cccc2c(Br)cccc12	-22	5	8	-2	-5	11	3104
O=C(O)c1ccc(NC(=O)c2cn(-c3ccccc3)nc2-c2ccc(F)cc2)cc1	-23	22	-2	10	-4	1.9	3845
Cc1c(N=Cc2c(O)n(Cc3ccco3)c(=O)c3ccccc23)c(=O)n(-c2ccccc2)n1C	-10	7	-2	5	-7	2.4	8716
CN(C)CCN(Cc1ccccc1)S(=O)(=O)c1ccc(-c2ccc(=O)[nH]n2)s1	-3	4	-3	6	-9	3.4	5785
CC(=O)Nc1ccc(C(=O)CSc2nnc(Cn3nnc4ccccc43)n2C)cc1	-26	6	13	2	-18	4.0	10256
CCN(CC)Cc1c(C(=O)NN=Cc2ccccn2)nnn1-c1nonc1N	nt	2	11	-3	nt	3.7	nt
CCOc1ccc(-c2cn3ccccc3n2)cc1[N+](=O)[O-]	-89	2	8	1	5	7.9	2548
Cc1ccc(S(=O)(=O)N2CCCCC2)cc1C(=O)N(CCc1ccccc1)Cc1ccccc1	-14	9	1	3	-21	-4.6	4754
COC(=O)N1CCCc2cc(C)ccc21	-11	6	0	3	-11	3.5	4579
COc1cccc(C2CC(c3ccccc3)Nc3ncnn32)c1 (stereo not drawn)	-18	0	-2	-9	0	0.4	22399*
Cc1cc(=O)n2nc(N3CCC(C(=O)Nc4cccc(Cl)c4C)CC3)sc2n1	-8	1	7	-2	9	0.3	6156
O=C(CN(C(=O)CNC(=O)c1cccs1)c1ccccc1F)NC1CCCC1	-23	1	15	2	11	3.0	3950
Cc1ccc(-c2nc(Nc3cccc(O)c3)c3ccccc3n2)cc1	-13	67	5	6	-18	61	3912
CN(C(=O)CSc1nnc(CN2CCCC2)n1Cc1ccccc1)c1ccccc1	-31	-2	-5	-5	-14	-1.2	5437
O=C(COC(=O)COc1ccccc1F)Nc1ccc(Cl)cn1	-31	4	13	7	5	1.4	5749
O=C(CSc1nnc(-c2ccc(F)cc2)o1)N1CCCC1	-11	0	7	0	-2	2.3	5371
COc1ccc(C(C)=O)cc1COC(=O)CNC(=O)c1ccc(Cl)cc1	-23	4	3	5	2	0.2	2133
COCCCNc1nc2c(-c3cccc(C)c3)nnn2c2ccccc12	-10	-13	3	10	4	-10	6321
COc1ccccc1C(=O)NNC(=O)c1ccc(C)cc1	-26	8	8	15	-11	2.1	3637
CCn1c(=O)n(CC)c2cc(N3CCCC3)c(NC(=O)c3cccc(Cl)c3)cc21	-9	-7	-3	-6	-5	0.5	5963
CC(C)c1nc(SCC(=O)Nc2nc3c(s2)CCCC3)c2ccccc2n1	-9	-16	-7	4	0	-2.9	8202
COc1ccc(S(=O)(=O)N2CCC(C(=O)NCCCc3ccccc3)CC2)cc1	-5	5	4	-6	13	2.5	5666
CCC(=NCc1ccco1)c1c(O)n(-c2ccc(OC)cc2)c(=O)[nH]c1=O	-5	-3	nt	nt	-2	-5.1	3149
COc1ccc(CN2C(=O)CN=C2Nc2cccc(C)c2C)cc1	4	4	3	0	-17	-0.5	3050
CC(C)CNC(=O)C1CCN(Cc2ccc(OCc3ccccc3)cc2)CC1	-49	-3	11	3	2	-3.2	2306
S=c1[nH]c2cnc(Cl)nc2[nH]1	16	-5	-1	2	nt	0.3	2815
Cc1cc(NC(=O)COn2nnc3ccc(S(C)(=O)=O)cc32)ccc1Br	0	0	0	-1	-1	1.5	3399
O=[N+]([O-])c1ccc(O)c(Nc2c([N+](=O)[O-])ccc3nonc23)c1	-24	19	19	1	-2	33	3780
COc1cc(/C=C/C(=O)c2cccc([N+](=O)[O-])c2)cc(OC)c1OC	-12	3	6	-5	15	8.8	2605
CN(NC1OC(=O)c2ccccc21)c1ncc(Cl)cc1C(F)(F)F (stereo not drawn)	nt	4	5	7	13	3.8	4569
CC#CCCC(=O)N1C=Cc2ccccc2C1C#N (stereo not drawn)	-31	4	16	9	-2	-1.1	4202
COc1ccc(C(=O)C2CCN(C(=O)Nc3ccc(C)cc3)CC2)cc1	-27	-3	4	0	2	-0.6	3785
Cc1nn(S(=O)(=O)N2CCCCC2)c(C)c1Br	9	9	4	-5	-2	8.7	8911
O=C(c1ccccc1)c1ccc2nc(-c3ccco3)c(-c3ccco3)nc2c1	-36	16	14	5	-9	20	3903
Cn1c(SCC(=O)N2CCCCCC2)nc2c(c1=O)SCC2	-1	4	3	0	-4	-0.2	5428
O=C(C1=C(O)C(=O)N(Cc2ccco2)C1c1cccnc1)c1cc2ccccc2o1 (stereo not drawn)	-21	-4	2	-1	-10	-12	3331
COc1ccc(NC(=O)Nc2ccc(OCc3ccccc3)cc2)cn1	-20	-12	0	7	6	-0.8	3739
COc1ccc(N(Cc2ccccc2)N=O)cc1	-18	7	7	-11	10	1.1	3086
COc1ccc(CC(O)CC2c3c(cc4c(c3OC)OCO4)CCN2C)cc1 (stereo not drawn)	-13	-3	-5	6	0	1.8	3650
O=C(O)c1ccc2oc(=O)c(S(=O)(=O)c3ccccc3)cc2c1	-24	-5	0	5	6	0.6	3537
O=S(=O)(c1cnccc1N1CCN(CCO)CC1)N1CCCCC1	2	nt	nt	nt	11	nt	5826
CCN(CC)S(=O)(=O)c1ccc(OC)c(NC(=O)CCS(=O)(=O)Cc2ccccc2)c1	-18	-1	9	17	-3	3.5	5727
Cc1onc(C(=O)NN)c1-c1csc(COc2ccccc2)n1	-13	3	5	1	9	3.6	nt
Cc1cc(NC(=O)CSc2nnc(-c3ccccc3)c(-c3ccccc3)n2)no1	-50	-2	-4	2	32	11	4731
O=c1[nH]cnc2sc3c(c12)CCCC3	-11	4	12	6	2	6.3	23869*
CCCn1cc(CN2CCCC(C(=O)c3cccc(OC)c3)C2)c(C)n1 (stereo not drawn)	-19	12	-2	12	1	1.0	2658
CCOC(=O)N1CCN(C(=O)c2cc3c(=O)n4ccccc4nc3s2)CC1	-19	0	-5	0	3	0.8	6234
O=C(COC(=O)c1ccc(Cl)c(S(=O)(=O)N2CCCCC2)c1)NCC1CCCCC1	-10	0	5	4	nt	-1.5	3784
CN(CC(=O)NCCc1ccccc1)S(=O)(=O)c1ccccc1	-14	-2	2	0	-2	3.0	3201
CN(CC(=O)Nc1ccc2c(c1)OCCO2)S(=O)(=O)c1ccc(Br)s1	-17	12	nt	nt	-8	4.5	3611
New compounds follow:
SMILES	PrP 5UTR inh	Sa ugtP lethal	Mtb hypoxia inh	Mtb hypoxia inh growth	BJeLR lethal	Sa RN4220 lethal	Bead autofluor
O=[N+]([O-])c1ccc2nc(-c3ccccc3)oc2c1	-56	5	16	6	4	16	3325
Cc1ccc(C(=S)N2CCCCCC2)cc1	-22	7	17	11	-3	2.0	4034
O=S(=O)(NCC(c1ccco1)N1CCN(c2ccccc2)CC1)c1ccc(F)cc1 (stereo not drawn)	11	2	-3	-2	7	2.5	10930
C[C@H](NC(=O)c1cc2cc(Cl)ccc2n1C)C(=O)N1CCC[C@H]1C(=O)O	-8	-6	nt	nt	-7	4.8	5416
Cc1cc(C)n2ncc(C(=O)O)c2n1	-9	-72	10	-2	0	13	4304
COc1ccccc1C(=O)NNC(=O)C1CC=CCC1 (stereo not drawn)	-32	7	-7	-1	-2	3.6	3687
CC(C)(C)c1nnc2sc(SCC(=O)c3ccc(Cl)cc3)nn2c1=O	-12	2	1	2	4	9.8	4028
CSc1ccccc1NC(=O)c1cccc(S(=O)(=O)N2CCN(C)CC2)c1	-18	3	7	13	1	0.5	5421
CC(=O)c1ccccc1OCC(O)Cn1ccnc1 (stereo not drawn)	-8	7	-5	4	0	3.9	3645
CCc1cc2ccc(C)cc2nc1SCC(=O)Nc1c[nH]c(=O)[nH]c1=O	-20	-1	13	1	-4	12	3239

Six compounds drawn at random from those above, as already listed:
SMILES	PrP 5UTR inh	Sa ugtP lethal	Mtb hypoxia inh	Mtb hypoxia inh growth	BJeLR lethal	Sa RN4220 lethal	Bead autofluor
O=S(=O)(NCC(c1ccco1)N1CCN(c2ccccc2)CC1)c1ccc(F)cc1 (stereo not drawn)	11	2	-3	-2	7	2.5	10930
CC(C)(C)c1nnc2sc(SCC(=O)c3ccc(Cl)cc3)nn2c1=O	-12	2	1	2	4	9.8	4028
Cc1ccc(C(=S)N2CCCCCC2)cc1	-22	7	17	11	-3	2.0	4034
O=[N+]([O-])c1ccc2nc(-c3ccccc3)oc2c1	-56	5	16	6	4	16	3325
Cc1cc(C)n2ncc(C(=O)O)c2n1	-9	-72	10	-2	0	13	4304
COc1ccccc1C(=O)NNC(=O)C1CC=CCC1 (stereo not drawn)	-32	7	-7	-1	-2	3.6	3687

Remaining list, next part.
SMILES	PrP 5UTR inh	Sa ugtP lethal	Mtb hypoxia inh	Mtb hypoxia inh growth	BJeLR lethal	Sa RN4220 lethal	Bead autofluor
O=C(c1ccccc1)N(Cc1ccccc1)Cc1ccccc1	-4	7	-8	6	0	-2.3	3856
COc1cccc(Nc2nc3ccccc3n2C(C)C)c1	-5	4	5	9	6	1.9	2288
COCCNC(=O)c1cc(Sc2nnc(C)s2)nc2ccccc12	nt	0	9	4	4	0.3	nt
Cn1c(NCc2cccs2)nc2ccccc21	-35	5	nt	nt	-8	0.2	2923
O=C1CSc2ccc(S(=O)(=O)CCC(=O)NC3CCCCC3)cc2N1	3	0	-9	-2	2	6.1	4482
Cc1ccc(S(=O)(=O)N(C)C)cc1NC(=O)c1cncc(Br)c1	12	8	7	5	-2	3.8	6628
COC(=O)N(c1ccc(OC)cc1)P1(=S)OCCC(C)O1 (stereo not drawn)	-19	-5	8	3	-1	-17	2406
CC(OC(=O)c1ccccc1NCCO)C(=O)NC1CCCCC1C (stereo not drawn)	-3	nt	nt	nt	-5	nt	?
COc1ccc(/C(O)=C2/C(=O)C(=O)N(Cc3cccnc3)C2c2ccncc2)cc1F (stereo not drawn)	-9	0	nt	nt	3	-1.1	3798
CN(C)c1nc(N(C)C)n(C(=O)c2ccc(F)cc2)n1	-10	4	5	9	0	0.7	3971

Some of the entries above, set out differently.
Value order: PrP 5UTR inh	Sa ugtP lethal	Mtb hypoxia inh	Mtb hypoxia inh growth	BJeLR lethal	Sa RN4220 lethal	Bead autofluor
CC(C)c1nc(SCC(=O)Nc2nc3c(s2)CCCC3)c2ccccc2n1
 : -9	-16	-7	4	0	-2.9	8202
COc1ccc(S(=O)(=O)N2CCC(C(=O)NCCCc3ccccc3)CC2)cc1
 : -5	5	4	-6	13	2.5	5666

Next results follow:
SMILES	PrP 5UTR inh	Sa ugtP lethal	Mtb hypoxia inh	Mtb hypoxia inh growth	BJeLR lethal	Sa RN4220 lethal	Bead autofluor
CC(C)CC1(C)CNC(=O)NC1	-15	4	11	1	nt	-0.6	3525
CCCNc1nc(C)cc(-c2cc(C(=O)NC3CCCC3)on2)n1	-15	-4	5	3	3	0.4	2482
Cc1ccc(S(=O)(=O)NC2CCCC(C(=O)O)C2)cc1 (stereo not drawn)	0	7	nt	nt	-7	1.0	4553
COc1ccc(S(=O)(=O)N(C)CC2Oc3c(NC(=O)C4CCCCC4)cccc3C(=O)N(C(C)CO)CC2C)cc1 (stereo not drawn)	nt	2	6	8	nt	3.0	nt
CCN(CC)c1ccc(/C=N/Nc2cccc(C)c2)c(O)c1	-13	nt	nt	nt	5	nt	2470
O=C(Cn1cnc2cc([N+](=O)[O-])ccc2c1=O)NCc1ccc(Cl)cc1	-7	-1	-6	11	4	7.8	3080
O=C1CN(C(=O)COC(=O)CCC(=O)c2ccc(F)cc2)c2ccccc2N1	-4	1	7	2	nt	2.4	3479
COc1ccc(-c2noc(CN(C(=O)c3ccoc3C)C(C)C)n2)cc1	-26	10	4	0	-2	2.4	2942
O=C(O)CSc1nnc(NC(=O)CN2CCOCC2)s1	-27	2	-1	0	-4	0.0	3580
CC(=NNS(=O)(=O)c1ccc(Br)cc1)c1ccc2c(c1)OCO2	nt	7	5	3	nt	3.0	nt
Cc1ccc(-c2ccc(/C=N/n3cnnc3)o2)cc1	-16	nt	nt	nt	1	nt	4166
O=C1c2ccccc2NC(c2cccc([N+](=O)[O-])c2)N1CCc1ccccc1 (stereo not drawn)	-29	1	15	2	-2	-7.8	5795
Cc1c(NC(=O)/C(C#N)=C\c2cccs2)c(=O)n(-c2ccccc2)n1C	-23	3	-2	4	2	0.0	2259
O=C(COC(=O)C1(c2ccc(Cl)cc2)CCCC1)N1CCc2ccccc21	-26	-9	13	5	-2	-6.0	5891
Cc1ccc(C(=O)OCC(=O)c2c(N)n(C)c(=O)n(C)c2=O)cc1S(=O)(=O)N1CCCCC1	-13	-7	5	-1	19	5.9	2471

Screens from PubChem BioAssay.

The order is random. Share with any hit: about 4%.
